Methyltransferases – Primary Screen for Target Class Profiling of Small Molecule Inhibitors of Methyltransferases | purified enzyme, MTase-Glo SAH luminescence; hits give low values | 3.9% of 25,000 active | calls only at 40 µM; active = -50% or lower on at least one of six enzymes; inconclusive = the cases between; inactive = as a rule above -30% on all six;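 further: enzymes were COMT GAMT GNMT HNMT NNMT and PNMT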
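Each enzyme was reacted with SAM and its substrate, with compounds tested once at 40 uM; SAH formed was read by MTase-Glo luminescence.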
Calls only; i = inactive; ? = inconclusive; + = active, no number; ! = not active in a repeat. On the % scale 0 is the no-effect control and ±100 the full control effect. A portion of the library; count on the stated rates, not on these rows.

SMILES	Methyltransferases
Nc1nc2c(s1)CCN(Cc1ccc(Cl)cc1)CC2	i
O=C(O)C1(Cc2cccc(Nc3nccs3)n2)CCC(Oc2cccc(Cl)c2F)CC1 (configuration not stated)	+!
Oc1ccc(-c2cnc3ccc(NCc4ccco4)nn23)cc1	?
COc1ccc(C2=N[C@@H](c3ccc(Cl)cc3)[C@@H](c3ccc(Cl)cc3)N2C(=O)N2CCNC(=O)C2)c(OC(C)C)c1	?
Cc1ccc(NC(=O)Nc2cc(C(F)(F)F)ccc2F)cc1Nc1ccc2c(c1)NC(=O)/C2=C\c1ccc[nH]1	i
COc1cc(C(=O)O)ccc1NC(=O)[C@@H]1N[C@@H](CC(C)(C)C)[C@](C#N)(c2ccc(Cl)cc2F)[C@H]1c1cccc(Cl)c1F	+
Cc1ccccc1C#Cc1ccc(CCC(=O)O)cc1	?
FC(F)(F)c1ccc(CNc2ccc(Cc3c[nH]c4ncccc34)cn2)cc1	?
COc1cc2nc(N3CCN(C(=O)COc4c(OC)cccc4C(C)C)CC3)nc(N)c2cc1OC	i
CC[C@@H](N)CNc1ccnc(-c2cc(-c3cnn(C)c3)ccc2O)n1	i
O=C(Nc1ncc(SCCN2CCCC2)s1)C1(c2ccc(S(=O)(=O)C3CC3)cc2)CC1C1CCCCC1 (configuration not stated)	?
COc1ccc(CN2CCN(C(c3ccc(F)cc3)c3ccc(F)cc3)CC2)c(OC)c1OC	i
CCC[C@H](N[C@@H](C)C(=O)N1[C@H](C(=O)O)C[C@@H]2CCCC[C@@H]21)C(=O)O	i
O=C1CSc2ccccc2N1Cc1cccc(C(F)(F)F)c1	+
O=C(Nc1c(-c2cccs2)nc2ccccn12)c1ccc(Cl)cc1	?
Cc1cccc2c1cnn2C(=O)CCC(=O)N1CCN(c2ccccn2)CC1	i
CN1CCN(C2=Nc3ccccc3Nc3ccc(O)cc32)CC1	i
COC(=O)N1CCN(Cc2cccc(NC(=O)Nc3ccc(C)nc3)c2F)CC1	i
COc1cccc(-c2cn(-c3ccc(CCN4CCC(O)CC4)cc3)c3ncnc(N)c23)c1	+
Cc1cc(C(=O)N2Cc3cnn(C)c3Nc3ccccc32)ccc1CNC(=O)N1CCN(Cc2cc(O)cc(O)c2)CC1	i
COc1ccc(NC(=O)c2ccc(-c3ccc(C(N)=O)cc3C)cc2)cc1N1CCN(C)CC1	i
CNc1nc(Nc2cn(C(C)(C)C#N)nc2C)ncc1C(F)(F)F	?
C[C@H](Nc1ncnc2nc[nH]c12)c1cc2cccc(Cl)c2c(=O)n1-c1ccccc1	?
COc1ccc(NS(=O)(=O)c2sc3ccc(Cl)cc3c2C)cc1N1CCNCC1	i
COc1cccc2c1c(O)c(C(=O)N(C)c1ccc(C(F)(F)F)cc1)c(=O)n2C	?
CC(C)(C)c1ccc(CNC(=S)NCc2ccc(NS(C)(=O)=O)c(F)c2)cc1	?
C[C@@H]([C@@H](O)c1ccc(O)cc1)N1CCC(O)(c2ccccc2)CC1	i
Cc1cc(Nc2nc(NC(C)c3ncc(F)cn3)ncc2Cl)n[nH]1 (configuration not stated)	i
O=C(O)Cn1nnc(-c2cc(N3CCC(Oc4cc(F)ccc4Br)CC3)no2)n1	i
C[C@H]1[C@H](/C=C/c2ccc(-c3ccccc3C#N)cn2)[C@@H]2[C@@H](C)OC(=O)[C@@H]2C[C@@H]1C	?
Cc1ccc(C(=O)N(CCCN)C(c2oc3cc(Cl)ccc3c(=O)c2Cc2ccccc2)C(C)C)cc1 (configuration not stated)	i
CN(C)C(=O)[C@H](O)[C@H](Cc1ccccc1)NC(=O)c1cc2cc(Cl)ccc2[nH]1	i
O=C(Nc1ccccc1)Nc1ccc(-c2ccc(C(=O)C3CCCC3C(=O)O)cc2)cc1 (configuration not stated)	i
Cc1ccc2nc(N)[nH]c(=O)c2c1Sc1ccncc1	+
COc1ccnc2[nH]cc(C(=O)C(=O)N3CCN(C(=O)c4ccccc4)CC3C)c12 (configuration not stated)	?
O=C(O)c1ccc2c(c1)nc(Nc1cccc(Cl)c1)c1ccncc12	+
COc1ccc2c(NC(=O)Nc3cccc(C(F)(F)F)n3)ccnc2c1	i
COc1ccccc1OCCNCC(O)COc1cccc2[nH]c3ccccc3c12 (configuration not stated)	i
Cc1cccc(C)c1-n1c(=O)c2cnc(Nc3ccc(N4CCN(C)CC4)cc3)nc2n2c3ccccc3nc12	?
O=C(Nc1cccnn1)N1CCN(c2nccc(-c3ccc(F)c(F)c3)n2)CC1	i
N#Cc1ccc2[nH]cc(CCCCN3CCN(c4ccc5oc(C(N)=O)cc5c4)CC3)c2c1	+
C=CC(=O)N1CCC[C@@H](n2nc(-c3cccc(C(=O)Nc4ccc(C(C)C)c(C)c4)c3)c3c(N)ncnc32)C1	i
N#Cc1ccc(-c2cnc3[nH]cc(NC(=O)c4cccnc4)c3c2)cc1	+
O=C(O)c1cc(-c2c(-c3ccccc3)nn3ccccc23)n[nH]c1=O	i
CN[C@H]1CN(c2ccc3c(=O)c(C(=O)O)cn(-c4nccs4)c3n2)C[C@@H]1OC	?
c1cc(NC2CCNCC2)nc(-c2cnc3ccccn23)c1	+
CC(C)Oc1ccc(-c2cnc3c(-c4ccnc5ccccc45)cnn3c2)cc1	i
CCCCc1ccc(C(=O)Nc2cc(-c3ccc(Cl)cc3)nn2-c2ccc(Cl)cc2)cc1	?
COc1c(F)cccc1C(=O)N1C[C@@H](C)CC[C@H]1CNc1ccc(Br)cn1	i
COc1cccc(-c2ccc([C@@H](Oc3cc(-c4ccc(C[C@H](N)C(=O)O)cc4)nc(N)n3)C(F)(F)F)cc2)c1	i

The results go on:
SMILES	Methyltransferases
c1nc(NC2CCCCCC2)c2cc(CNC[C@H]3CCCO3)sc2n1	i
Cc1cc2c(cc1CC(=O)c1sccc1S(=O)(=O)Nc1onc(C)c1Cl)OCO2	+!
COc1ccc(-c2cnc3c(-c4cccc5ncccc45)cnn3c2)cc1	i
C[C@@H]1CCNC(=O)c2cc3ccc(C(=O)Nc4nc5ccccc5n4CCCN(C)C)cc3n21	?
CC(C)n1nc(-c2ccc3oc(N)nc3c2)c2c(N)ncnc21	i
CN1CCN(C2CCN(C(=O)Nc3cc(Oc4ccc(NC(=O)C5(C(=O)Nc6ccc(F)cc6)CC5)c(F)c4)ccn3)CC2)CC1	i
CCNC(=O)Nc1ccc(-c2nc3c(c(N4CCOCC4C)n2)CCN(C2COC2)C3)cc1 (configuration not stated)	i
Cc1nc(Nc2n[nH]c3c2CN(C(=O)NC(CN(C)C)c2ccccc2)C3(C)C)c2sccc2n1 (configuration not stated)	+
O=C(NN1CCCC1)NS(=O)(=O)c1ccc(Cl)cc1	i
CCNC(=O)c1noc(-c2cc(Cl)c(O)cc2O)c1-c1ccc(OC)cc1	i
CN(C)N(C)C(=O)[C@@]1(Cc2ccccc2)CCCN(C(=O)[C@@H](Cc2c[nH]c3ccccc23)NC(=O)C(C)(C)N)C1	i
CC(C)c1cnn2c(NCc3ccccc3)cc(N[C@@H](CO)[C@H](O)CO)nc12	i
COc1cc2c(cc1OC)CN(C(=O)[C@@H](NCc1ccncc1)C(C)(C)C)CC2	i
O=C(N[C@@H]1CC[C@@H](c2cccc(F)c2F)CN(CC(F)(F)F)C1=O)N1CCC(n2c(=O)[nH]c3ncccc32)CC1	?
COc1cc2ncnc(Oc3cccc(NC(=O)Nc4cc(C(C)(C)C(F)(F)F)on4)c3)c2cc1OC	i
Cc1cc(C(=O)Nc2cc(Nc3ccc4c(/C=C/c5ccccn5)n[nH]c4c3)ccc2F)n(C)n1	i
CCN1CCN(Cc2ccc(-c3cc4c(N[C@H](C)c5ccccc5)ncnc4[nH]3)cc2)CC1	+
CC(=O)O[C@@]12CO[C@@H]1C[C@H](O)[C@@]1(C)C(=O)[C@H](O)C3=C(C)[C@@H](OC(=O)C(O)[C@@H](NC(=O)OC(C)(C)C)c4ccccc4)C[C@@](O)([C@@H](OC(=O)c4ccccc4)[C@H]21)C3(C)C (some centres not stated)	?
CC(=O)Nc1nc(C)c(-c2nc(N3CCCC(O)C3)no2)s1 (configuration not stated)	?
Fc1ccc(N2CCCCC2)c(NC(=S)c2ccncc2)c1	+
CC[C@@H]1C(=O)N(C)c2cnc(Nc3ccc(C(=O)NC4CCC(N5CCN(CC6CC6)CC5)CC4)cc3OC)nc2N1C(C)C (some centres not stated)	?
COc1cc(Nc2nc3ccccc3nc2NS(=O)(=O)c2ccc(NC(=O)c3ccc(OC)c(C)c3)cc2)cc(OC)c1	?
CN(C)CC(=O)Nc1ccc2[nH]c(=O)c3ccccc3c2c1	?
COc1cc(N2CCOCC2)ccc1Nc1ncc(F)c(Nc2ccccc2NS(C)(=O)=O)n1	+
C=CCOc1cc(Cl)ccc1C(=O)NCCN(CC)CC	i
CN(C)C/C=C/C(=O)Nc1cccc(C(=O)Nc2ccc(Nc3nccc(-c4cccnc4)n3)cc2)c1	+
Cc1ccc(Nc2cc(-c3cccc(N4C(=O)c5ccccc5C4=O)c3)ncn2)cc1NS(C)(=O)=O	?
COC(=O)c1ccc2c(C(=Nc3ccc(N(C)C(=O)CN4CCN(C)CC4)cc3)c3ccccc3)c(O)[nH]c2c1	?
CC(C)c1c2cc(-c3ccnc(NC4CCC(NC5CCOCC5)CC4)n3)ccc2nn1C (configuration not stated)	+
c1ccc(C(OC2CCN(CCCc3nn[nH]n3)CC2)c2ccccc2)cc1	i
Nc1c2c(nc3ccccc13)CCCC2O (configuration not stated)	?
CCOc1ccc(-n2c(C(C)N(Cc3cccnc3)C(=O)Cc3ccc(F)c(C(F)(F)F)c3)nc3ncccc3c2=O)cc1 (configuration not stated)	i
COc1ccc(OC)c(S(=O)(=O)N2CCC([C@H]3[C@@H](OC)C(=O)N3C(C)C)CC2)c1	i
COc1ccc(S(=O)(=O)Nc2c(C)cc(C)cc2C)cc1	?
CC1(c2nc3c(C(N)=O)cccc3[nH]2)CCCN1 (configuration not stated)	?
CCn1cc(S(=O)(=O)N2CCC[C@H]2c2nc(-c3ccc(F)cc3)n[nH]2)cn1	i
CN(C)C(CCOc1cccc2ccccc12)c1ccccc1 (configuration not stated)	?
COc1ccc(CNc2nc(N(CCO)CCO)nc3c2ncn3C(C)C)cc1	i
c1ccc(Cn2c(-c3ccc(OCC(C4CCNCC4)n4c(-c5ccccc5)nc5ccccc54)cc3)nc3ccccc32)cc1 (configuration not stated)	+
COc1ccc(C(=O)Nc2ncc(-c3ccc(C(=O)O)cc3)s2)cc1	i
Cc1cccc(Nc2cc(Cl)nc(SCC(=O)O)n2)c1C	i
CC(C)(C)c1nnc(NS(=O)(=O)c2ccccc2)s1	i
CC(C)(C)OC(=O)c1ncn2c1C(C)(C)Nc1ccccc1-2	i
CN(C)C/C=C/C(=O)Nc1cc2c(Nc3ccc(F)c(Cl)c3)ncnc2cc1OC1CCOC1 (configuration not stated)	+
Cc1cc(C(C)Nc2ccccc2C(=O)O)c2nc(N3CCOCC3)cc(=O)n2c1 (configuration not stated)	i
COc1ccc(-n2[nH]c3c(cnc4ccccc43)c2=O)cc1	?
C[C@@H](Nc1ncnc2[nH]c(-c3ccc(O)cc3)cc12)c1ccccc1	?
O=C(Nc1ccccc1Br)N[C@@H]1CCN(c2ccc(C(F)(F)F)cn2)C1	?
C/C(=N\O)c1ccc(OCC(=O)N2CCCCC2)cc1	i
CCc1cncnc1N1CCN(Cc2nc3ccc(C(F)(F)F)cc3[nH]2)CC1	?

3 neighbouring compounds already listed, quoted:
SMILES	Methyltransferases
Cc1cccc(Nc2cc(Cl)nc(SCC(=O)O)n2)c1C	i
CC(C)(C)c1nnc(NS(=O)(=O)c2ccccc2)s1	i
CC(C)(C)OC(=O)c1ncn2c1C(C)(C)Nc1ccccc1-2	i

6 structures out of the list, sorted by SMILES length, low to high:
SMILES	Methyltransferases
C/C(=N\O)c1ccc(OCC(=O)N2CCCCC2)cc1	i
COc1ccc(-n2[nH]c3c(cnc4ccccc43)c2=O)cc1	?
CC(C)(C)OC(=O)c1ncn2c1C(C)(C)Nc1ccccc1-2	i
C[C@@H](Nc1ncnc2[nH]c(-c3ccc(O)cc3)cc12)c1ccccc1	?
O=C(Nc1ccccc1Br)N[C@@H]1CCN(c2ccc(C(F)(F)F)cn2)C1	?
CN(C)C/C=C/C(=O)Nc1cc2c(Nc3ccc(F)c(Cl)c3)ncnc2cc1OC1CCOC1 (configuration not stated)	+

(next part)
SMILES	Methyltransferases
CC(C)c1ccc(NC(=O)c2cccs2)c(-c2nc3ccccc3[nH]c2=O)c1	i
CNC(=O)c1ccccc1Nc1nc(Nc2ccc(N3CCOCC3)cc2OC)ncc1Cl	i
c1cncc(CN2CCC(n3ncc4c(N5CCOCC5)nc(-c5ccc6[nH]ccc6c5)nc43)CC2)c1	?
O=C(NCC1CCN(Cc2cccc(Cl)c2)CC1)[C@@H]1CCCN(c2ncnc3c2nc2n3CCCC2)C1	i
C[C@@H](N)c1ccc(C(=O)Nc2ccnc3[nH]ccc23)cc1	i
Cn1c(=O)n(-c2ccc(C(C)(C)C#N)cc2)c2c3cc(-c4cnc5ccccc5c4)ccc3ncc21	i
CCc1nc(-c2cccc(C)c2)c(-c2ccnc(NC(=O)c3ccccc3)c2)s1	i
C=C1CCN([C@H](C)[C@](O)(Cn2cncn2)c2ccc(F)cc2F)CC1	i
CC[C@]1(O)C[C@@H]2CN(CCc3c([nH]c4ccccc34)[C@@](C(=O)OC)(c3cc4c(cc3OC)N(C)[C@H]3[C@@](O)(C(=O)OC)[C@H](OC(C)=O)[C@]5(CC)C=CCN6CC[C@]43[C@@H]65)C2)C1	?

From PubChem
